High-throughput results as filed in PubChem BioAssay.
Ran FRET: inhibitors of Ran–importin-beta complex formation, primary screen, biochemical, CFP-Ran/YFP-importin-beta FRET, RCC1, cell-free (AID 434961); inhibition, %; CFP-Ran/YFP-importin-beta FRET, cell-free; hits give high values; 0.2% of 7,700 active;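 active = more than half of the replicate wells above 15% inhibition; inconclusive = exactly half above it; inactive = fewer than half above it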;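 note: 0% = DMSO wells and 100% inhibition = RanGDP control wells on each plate; stock of unstated strength diluted about 400-fold; mean of two wells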
An asterisk follows results filed as active; ? = inconclusive. This is a subset. The share of hits here may be higher or lower than overall.

> C[C@H]1CN([C@@H](C)CO)C(=O)c2cc(NC(=O)NC3CCCCC3)ccc2O[C@H]1CN(C)Cc1ccncc1
  Ran FRET: ?
> C[C@H](CO)N1C[C@H](C)[C@H](CN(C)C(=O)Nc2ccc3c(c2)OCO3)Oc2c(NC(=O)NC3CCCCC3)cccc2C1=O
  Ran FRET: -2.3
> COc1ccc(NC(=O)Nc2ccc3c(c2)C(=O)N([C@@H](C)CO)C[C@H](C)[C@H](CN(C)S(=O)(=O)c2cn(C)cn2)O3)cc1
  Ran FRET: -2.9
> C[C@H](CO)N1C[C@H](C)[C@@H](CN(C)C(=O)Nc2ccccc2)Oc2ccc(NC(=O)NC3CCCCC3)cc2C1=O
  Ran FRET: 6.0
> C[C@@H]1CN([C@H](C)CO)C(=O)c2cccc(NS(=O)(=O)c3ccc(Cl)cc3)c2O[C@H]1CN(C)C(=O)Nc1ccc(C(F)(F)F)cc1
  Ran FRET: -0.9
> C[C@H]1CN([C@@H](C)CO)C(=O)Cc2cc(NC(=O)NC3CCCCC3)ccc2O[C@@H]1CN(C)Cc1ccc2c(c1)OCO2
  Ran FRET: 1.7
> C[C@@H]1CN([C@H](C)CO)C(=O)CCCn2cc(nn2)CO[C@@H]1CN(C)C(=O)Nc1cccc(Oc2ccccn2)c1
  Ran FRET: 5.8
> C[C@@H]1CN([C@H](C)CO)C(=O)c2cc(NC(=O)Nc3ccc(F)cc3)ccc2O[C@@H]1CN(C)C(=O)NC1CCCCC1
  Ran FRET: -1.7
> CC(C)NC(=O)Nc1cccc2c1O[C@H](CN(C)Cc1ccc(C(F)(F)F)cc1)[C@H](C)CN([C@@H](C)CO)C2=O
  Ran FRET: ?
> C[C@H](CO)N1C[C@H](C)[C@H](CN(C)C(=O)Nc2ccc(F)cc2)Oc2ccc(NC(=O)Cc3ccccc3)cc2CC1=O
  Ran FRET: 5.2
> C[C@@H]1CN([C@@H](C)CO)C(=O)c2cc(NS(C)(=O)=O)ccc2O[C@@H](C)CCCCO[C@@H]1CN(C)C(=O)Cc1ccccc1
  Ran FRET: -3.4
> COc1ccc(S(=O)(=O)Nc2cccc3c2O[C@H](CN(C)S(=O)(=O)c2cn(C)cn2)[C@@H](C)CN([C@H](C)CO)C3=O)cc1
  Ran FRET: -1.0
> C[C@H]1CN([C@@H](C)CO)C(=O)Cc2cc(NC(=O)Cc3ccccc3)ccc2O[C@@H]1CN(C)C(=O)NC1CCCCC1
  Ran FRET: 0.2
> Cc1noc(C)c1NC(=O)Nc1cccc2c1O[C@H](CN(C)S(=O)(=O)c1ccc(Cl)cc1)[C@@H](C)CN([C@@H](C)CO)C2=O
  Ran FRET: 2.9
> C[C@@H]1CN([C@H](C)CO)C(=O)CCCn2cc(nn2)CO[C@@H]1CN(C)C(=O)CCC(F)(F)F
  Ran FRET: 3.3
> Cc1noc(C)c1NC(=O)Nc1ccc2c(c1)CC(=O)N([C@@H](C)CO)C[C@@H](C)[C@H](CN(C)S(=O)(=O)c1cccs1)O2
  Ran FRET: 5.2
> Cc1noc(C)c1S(=O)(=O)N(C)C[C@@H]1Oc2ccc(NC(=O)NC(C)C)cc2CC(=O)N([C@@H](C)CO)C[C@H]1C
  Ran FRET: -3.5
> C[C@@H]1CN([C@@H](C)CO)C(=O)c2cc(NS(=O)(=O)c3cn(C)cn3)ccc2O[C@H]1CN(C)C(=O)Nc1ccc(F)cc1
  Ran FRET: 4.9
> C[C@@H]1CN([C@@H](C)CO)C(=O)c2cc(NC(=O)C3CC3)ccc2O[C@H]1CN(C)Cc1ccc(C(F)(F)F)cc1
  Ran FRET: -0.2
> C[C@H]1CN([C@@H](C)CO)C(=O)c2cc(NS(=O)(=O)c3cn(C)cn3)ccc2O[C@H]1CN(C)S(=O)(=O)c1cn(C)cn1
  Ran FRET: -3.9
> Cc1noc(C)c1S(=O)(=O)N(C)C[C@@H]1Oc2ccc(NC(=O)Nc3ccccc3)cc2CC(=O)N([C@H](C)CO)C[C@H]1C
  Ran FRET: 2.2
> Cc1noc(C)c1S(=O)(=O)N(C)C[C@@H]1Oc2c(NC(=O)c3nc4ccccc4s3)cccc2C(=O)N([C@H](C)CO)C[C@@H]1C
  Ran FRET: -6.2
> C[C@@H]1CN([C@H](C)CO)C(=O)c2cccc(NC(=O)Nc3ccc(C(F)(F)F)cc3)c2O[C@H]1CN(C)CC1CC1
  Ran FRET: -0.7
> C[C@@H]1CN([C@H](C)CO)C(=O)c2cccc(NS(=O)(=O)c3cccs3)c2O[C@@H]1CN(C)Cc1ccc(-c2ccccc2)cc1
  Ran FRET: 1.7
> C[C@H](CO)N1C[C@H](C)[C@H](CN(C)CC2CC2)Oc2c(NC(=O)c3ccncc3)cccc2C1=O
  Ran FRET: -2.3

The final three records of the section above are carried over, then new ones follow:
> C[C@@H]1CN([C@H](C)CO)C(=O)c2cccc(NC(=O)Nc3ccc(C(F)(F)F)cc3)c2O[C@H]1CN(C)CC1CC1
  Ran FRET: -0.7
> C[C@@H]1CN([C@H](C)CO)C(=O)c2cccc(NS(=O)(=O)c3cccs3)c2O[C@@H]1CN(C)Cc1ccc(-c2ccccc2)cc1
  Ran FRET: 1.7
> C[C@H](CO)N1C[C@H](C)[C@H](CN(C)CC2CC2)Oc2c(NC(=O)c3ccncc3)cccc2C1=O
  Ran FRET: -2.3
> C[C@H](CO)N1C[C@H](C)[C@@H](CN(C)S(=O)(=O)c2ccccc2)OCCCC[C@H](C)Oc2ccc(NS(C)(=O)=O)cc2C1=O
  Ran FRET: -0.8
> C[C@@H]1CN([C@H](C)CO)C(=O)Cc2cc(NS(C)(=O)=O)ccc2O[C@H]1CN(C)S(=O)(=O)c1cccs1
  Ran FRET: 3.1
> C[C@H]1CN([C@@H](C)CO)C(=O)c2cccc(NC(=O)NC3CCCCC3)c2O[C@@H]1CN(C)C(=O)NC1CCCCC1
  Ran FRET: -0.6
> C[C@@H]1CN([C@H](C)CO)C(=O)c2cccc(NS(=O)(=O)c3ccc(Cl)cc3)c2O[C@H]1CN(C)C
  Ran FRET: 1.1
> Cc1noc(C)c1NC(=O)N(C)C[C@@H]1OCCCC[C@@H](C)Oc2ccc(NC(=O)c3ccncc3)cc2C(=O)N([C@@H](C)CO)C[C@H]1C
  Ran FRET: 2.2
> C[C@H](CO)N1C[C@H](C)[C@H](CN(C)S(=O)(=O)c2ccccc2)OCCCC[C@H](C)Oc2ccc(NC(=O)c3ccccc3)cc2C1=O
  Ran FRET: 3.7
> C[C@@H]1CN([C@H](C)CO)C(=O)c2cc(NC(=O)NC3CCCCC3)ccc2O[C@@H]1CN(C)C(=O)Nc1ccccc1
  Ran FRET: -0.2
> Cc1ccc(S(=O)(=O)Nc2ccc3c(c2)CC(=O)N([C@H](C)CO)C[C@@H](C)[C@H](CN(C)Cc2ccncc2)O3)cc1
  Ran FRET: 4.5
> C[C@@H]1CN([C@H](C)CO)C(=O)Cc2cc(NC(=O)CCN3CCOCC3)ccc2O[C@@H]1CN(C)C
  Ran FRET: 13
> COc1ccc(S(=O)(=O)N(C)C[C@H]2Oc3ccc(NC(=O)Nc4ccc(C(F)(F)F)cc4)cc3CC(=O)N([C@H](C)CO)C[C@H]2C)cc1
  Ran FRET: 3.3
> Cc1noc(C)c1NC(=O)Nc1cccc2c1O[C@H](CN(C)Cc1ccccc1)[C@@H](C)CN([C@H](C)CO)C2=O
  Ran FRET: 3.5
> C[C@H]1CCCCO[C@@H](CN(C)Cc2ccc(C(=O)O)cc2)[C@@H](C)CN([C@@H](C)CO)C(=O)c2cc(NC(=O)Nc3ccc(F)cc3)ccc2O1
  Ran FRET: -0.4
> CNC[C@@H]1Oc2ccc(NC(=O)CCCN(C)C)cc2C(=O)N([C@H](C)CO)C[C@@H]1C
  Ran FRET: -4.2
> C[C@H](CO)N1C[C@H](C)[C@H](CN(C)Cc2ccccc2)Oc2ccc(N(C)C)cc2C1=O
  Ran FRET: 0.7
> Cc1noc(C)c1S(=O)(=O)N(C)C[C@@H]1Oc2ccc(NC(=O)NC(C)C)cc2CC(=O)N([C@H](C)CO)C[C@@H]1C
  Ran FRET: -0.1
> Cc1noc(C)c1NC(=O)N(C)C[C@H]1Oc2c(NC(=O)c3ccc(-c4nccs4)cc3)cccc2C(=O)N([C@H](C)CO)C[C@@H]1C
  Ran FRET: -1.5
> C[C@H](CO)N1C[C@H](C)[C@@H](CN(C)S(=O)(=O)c2ccccc2)Oc2ccc(NC(=O)NC3CCCCC3)cc2CC1=O
  Ran FRET: 2.2
> Cc1noc(C)c1S(=O)(=O)Nc1ccc2c(c1)CC(=O)N([C@H](C)CO)C[C@@H](C)[C@@H](CN(C)Cc1ccc(-c3ccccc3)cc1)O2
  Ran FRET: -3.8
> C[C@@H]1CCCCO[C@H](CN(C)C)[C@H](C)CN([C@H](C)CO)C(=O)c2cc(NC(=O)Nc3ccc(C(F)(F)F)cc3)ccc2O1
  Ran FRET: 1.4
> COc1ccc(CN(C)C[C@H]2Oc3ccc(NC(=O)Nc4ccc(C(F)(F)F)cc4)cc3C(=O)N([C@@H](C)CO)C[C@@H]2C)cc1
  Ran FRET: -6.6
> CCCC(O)C#Cc1cnc2c(c1)C(=O)N([C@H](C)CO)C[C@H](C)[C@H](CN(C)C)O2 (stereo not given in full)
  Ran FRET: 1.0
> C[C@@H]1CCCCO[C@@H](CN(C)C(=O)CCC(F)(F)F)[C@@H](C)CN([C@@H](C)CO)C(=O)c2cc(NS(C)(=O)=O)ccc2O1
  Ran FRET: -5.2
> C[C@H](CO)N1C[C@H](C)[C@H](CN(C)C(=O)Nc2ccccc2F)OCc2cn(nn2)CCCC1=O
  Ran FRET: 1.6
> C[C@@H]1CN([C@@H](C)CO)C(=O)c2cc(NC(=O)Cn3cnnn3)ccc2O[C@H]1CN(C)Cc1ccncc1
  Ran FRET: 3.6
> C[C@H](CO)N1C[C@H](C)[C@H](CN(C)C(=O)Nc2cccc3ccccc23)OCc2cn(nn2)CCCC1=O
  Ran FRET: 4.2

> CC(C)NC(=O)N(C)C[C@@H]1OCCCC[C@@H](C)Oc2ccc(NC(=O)Nc3ccccc3)cc2C(=O)N([C@H](C)CO)C[C@@H]1C
  Ran FRET: 6.6
> C[C@H]1CCCCO[C@@H](CN(C)C(=O)Nc2ccccc2)[C@@H](C)CN([C@@H](C)CO)C(=O)c2cc(N(C)C)ccc2O1
  Ran FRET: -0.3
> COc1ccc(S(=O)(=O)N(C)C[C@@H]2Oc3ccc(NS(=O)(=O)c4ccc(Cl)cc4)cc3C(=O)N([C@H](C)CO)C[C@@H]2C)cc1
  Ran FRET: 1.9
> C[C@H]1CN([C@@H](C)CO)C(=O)c2cccc(N(C)C)c2O[C@@H]1CN(C)C(=O)Nc1ccc(C(F)(F)F)cc1
  Ran FRET: -0.6
> COc1ccc(S(=O)(=O)N(C)C[C@@H]2Oc3ccc(NC(=O)Nc4ccc(C(F)(F)F)cc4)cc3CC(=O)N([C@H](C)CO)C[C@@H]2C)cc1
  Ran FRET: -2.3
> CC(C)NC(=O)N(C)C[C@H]1Oc2ccc(NC(=O)CCC(F)(F)F)cc2CC(=O)N([C@@H](C)CO)C[C@@H]1C
  Ran FRET: -2.8
> C[C@@H]1CCCCO[C@@H](CN(C)C(=O)Nc2ccccc2)[C@@H](C)CN([C@@H](C)CO)C(=O)c2cc(NC(=O)CCC(F)(F)F)ccc2O1
  Ran FRET: ?
> C[C@@H]1CN([C@H](C)CO)C(=O)c2cc(N(C)C)ccc2O[C@@H]1CN(C)C(=O)NC1CCCCC1
  Ran FRET: -1.6
> COc1ccc(S(=O)(=O)Nc2cccc3c2O[C@@H](CN(C)Cc2ccncc2)[C@@H](C)CN([C@@H](C)CO)C3=O)cc1
  Ran FRET: 1.8
> CC(C)NC(=O)N(C)C[C@H]1Oc2ccc(NS(=O)(=O)c3cn(C)cn3)cc2CC(=O)N([C@@H](C)CO)C[C@@H]1C
  Ran FRET: ?
> C[C@@H]1CN([C@@H](C)CO)C(=O)c2cc(N(C)C)ccc2O[C@H]1CN(C)Cc1ccccc1
  Ran FRET: 0.6
> CC(C)NC(=O)N(C)C[C@H]1Oc2c(NS(=O)(=O)c3ccccc3)cccc2C(=O)N([C@H](C)CO)C[C@@H]1C
  Ran FRET: -4.4
> Cc1noc(C)c1S(=O)(=O)Nc1ccc2c(c1)CC(=O)N([C@@H](C)CO)C[C@@H](C)[C@@H](CN(C)Cc1ccc(-c3ccccc3)cc1)O2
  Ran FRET: ?
> C[C@@H]1CN([C@H](C)CO)C(=O)c2cc(NC(=O)Nc3ccc4c(c3)OCO4)ccc2O[C@H]1CN(C)C(=O)Nc1ccc2c(c1)OCO2
  Ran FRET: -0.1
> C[C@@H]1CCCCO[C@@H](CN(C)Cc2ccncc2)[C@H](C)CN([C@@H](C)CO)C(=O)c2cc(NC(=O)c3ccncc3)ccc2O1
  Ran FRET: 5.2
> C[C@@H]1CN([C@@H](C)CO)C(=O)c2cccc(NS(=O)(=O)c3ccc(F)cc3)c2O[C@@H]1CN(C)C(=O)NC1CCCCC1
  Ran FRET: -7.8
> CC(C)NC(=O)Nc1ccc2c(c1)C(=O)N([C@@H](C)CO)C[C@@H](C)[C@@H](CN(C)C)OCCCC[C@H](C)O2
  Ran FRET: -4.5
> COc1ccc(CN(C)C[C@@H]2Oc3ccc(NS(=O)(=O)c4ccc(OC)cc4)cc3C(=O)N([C@H](C)CO)C[C@@H]2C)cc1
  Ran FRET: -2.5
> COc1ccc(S(=O)(=O)Nc2cccc3c2O[C@H](CN(C)Cc2ccc(C(F)(F)F)cc2)[C@@H](C)CN([C@H](C)CO)C3=O)cc1
  Ran FRET: -2.8
> C[C@@H]1CN([C@H](C)CO)C(=O)CCCn2cc(nn2)CO[C@@H]1CN(C)Cc1ccncc1
  Ran FRET: 1.5
> COc1ccc(S(=O)(=O)N(C)C[C@H]2Oc3c(NS(=O)(=O)c4ccccc4)cccc3C(=O)N([C@@H](C)CO)C[C@@H]2C)cc1
  Ran FRET: -0.4
> COc1ccc(CN(C)C[C@H]2Oc3c(NS(=O)(=O)c4ccc(Cl)cc4)cccc3C(=O)N([C@@H](C)CO)C[C@H]2C)cc1
  Ran FRET: -0.2
> CC(C)NC(=O)N(C)C[C@@H]1OCCCC[C@H](C)Oc2ccc(NC(=O)CCC(F)(F)F)cc2C(=O)N([C@@H](C)CO)C[C@H]1C
  Ran FRET: -1.9
> C[C@@H]1CN([C@H](C)CO)C(=O)c2cc(NC(=O)c3ccncc3)ccc2O[C@@H](C)CCCCO[C@@H]1CN(C)C(=O)Nc1cccc2ccccc12
  Ran FRET: 5.3
